Screens as filed in PubChem.
Sa helicase inh = blocks Staphylococcus aureus DNA helicase; purified S. aureus helicase, fluorescence unwinding assay; about half of the hits fall short of the stated cut; inhibition, %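 (tested at about 80 µM)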; 120,000 tested, 0.05% active;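 active = both duplicates at 50% or more, or one of them with a favoured structure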;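 also: 0% = mean of negative control wells and 100% = mean of positive control wells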
MgrA DNA FP = S. aureus MgrA-DNA binding modulation | AID 602314 | fluorescence polarization | inhibition, %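 (about 10 µg/mL by stock and volumes)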 | 84,000 tested, 0.13% active;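 active = above 50% in either of two replicates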;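 also: 0% = protein plus DNA without compound and 100% = DNA alone without protein; higher means less MgrA bound to DNA so lower polarization; one replicate is shown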
* marks the source's active call; other numbers are inactive results; · = not tested or not shown; & = joins results of further samples. A portion of the library. The share of hits here may be higher or lower than overall.

SMILES	Sa helicase inh	MgrA DNA FP
COC(=O)c1ccc(C2c3c(oc4ccc(F)cc4c3=O)C(=O)N2CCCN(C)C)cc1 (stereo unspecified)	7.0	-1.8
O=C(O)[C@H](O)[C@@H](O)[C@H](O[C@@H]1O[C@H](CO)[C@H](O)[C@H](O)[C@H]1O)[C@H](O)CO	·	0.7
CC(C)N(C(=O)Cn1ccc(=N)c2ccccc21)C(C)C	11.0	-1.0
CCOC(=O)C1CCN(Cc2cccc(NC(=O)c3cccs3)c2)CC1	·	-1.6
Nn1c(COc2ccccc2)nnc1SC(F)F	4.0	-1.2
CN1CCN(S(=O)(=O)c2ccc3c(c2)oc(=O)c2cc(S(=O)(=O)N4CCN(C)CC4)ccc23)CC1	9.0	-0.5
O=C(NC(NCC12CC3CC(CC(C3)C1)C2)(C(F)(F)F)C(F)(F)F)c1ccccc1	-9.0	-0.9
CN(C(=O)C1=COCCO1)c1ccccc1	8.0	·
COc1ccccc1NC(=O)CC1C(=O)NC2CCCCC2N1C(=O)C(F)(F)F (stereo unspecified)	-14.0	·
COc1ccc(-c2noc(N3CCCC(C(=O)N(C)c4cc(Cl)ccc4OC)C3)n2)cc1 (stereo unspecified)	-11.0	·
Cc1cccc(NC(=O)c2ccc(S(=O)(=O)N(C)c3ccccc3)cc2)n1	-19.0	·
O=C(NCCN1CCCC1)Nc1ccccc1C(F)(F)F	14.0	2.5
Cn1c(C(F)(F)F)nc2ccccc21	10.0	·
CCOC(=O)c1sc(SC)c2c1CCCC2=O	·	0.6
FC(F)(F)c1cc(-c2ccccc2)n[nH]1	·	0.2
CCOC(=O)c1c(C2CCN(C(=O)OCC)CC2)nc2ccccn12	16.0	1.6
CS(=O)(=O)c1nnnn1-c1cccc2ccccc12	3.0	-2.1
Cc1ccc(C)c(Cc2cc(Cl)ccc2Cl)c1	9.0	-0.8
CCC1(C)NC(=O)N(/N=C/c2cc(C)n(-c3cccc(S(=O)(=O)N4CCOCC4)c3)c2C)C1=O (stereo unspecified)	-9.0	·
CC1CCc2nc(SC3CC(=O)C4OCC3O4)nc(C(F)(F)F)c2C1 (stereo unspecified)	19.0	3.8
CCN(CC)C(=O)CS(=O)(=O)Cc1nc(-c2cccc(OC)c2)oc1C	4.0	·
CC(C)C(=O)N(c1ccccc1)C1C=CS(=O)(=O)C1 (stereo unspecified)	2.0	-0.2
CCOc1ccc(NC2=CC(=O)CCC2)cc1	10.0	-1.1
Cc1cccc(C(=O)NCC(=O)NN)c1	5.0	·
Cc1cc(SCC(=O)Nc2oc(C)c3c(C)n[nH]c(=O)c23)nc2ccccc12	-10.0	·

(next part)
SMILES	Sa helicase inh	MgrA DNA FP
CC(C)(CO)C(O)C(=O)NC1CCCCC1 (stereo unspecified)	7.0	2.8
NNc1nc(-c2ccco2)cc(C(F)(F)F)n1	-7.0	0.6
CCSC1=NCCN1S(=O)(=O)c1ccc(NC(C)=O)cc1	17.0	·
COc1ccc(NC(C)=O)c(C(=O)O)c1	·	-3.0
Nc1ccc(C(=O)Nc2ccc3nc(-c4cccnc4)[nH]c3c2)cc1	8.0	·
CC1C(c2ccccc2)OC(c2ccccc2O)N1C (stereo unspecified)	22.0	·
O=C(c1ccccc1)N1CCN(C(=O)c2nn3c(c2Br)NC(c2ccco2)CC3C(F)(F)F)CC1 (stereo unspecified)	·	2.9
Cc1ccn2c(=O)cc(CNCC(c3ccc(F)cc3)N3CCOCC3)nc2c1 (stereo unspecified)	9.0	·
COc1ccc(OC)c(/C=C/C(=O)NCCN2CCC(N(C)C3CCCCC3C)CC2)c1 (stereo unspecified)	9.0	·
Cc1onc(-c2ccccc2Cl)c1NC(=O)Nc1cccc(Cl)c1Cl	·	-2.5
CC(C)n1cc(C(=O)c2ccccc2O)cc1-c1nc2ccccc2c(=O)[nH]1	3.0	·
CC1CC(C)CN(S(=O)(=O)N2CCCC(C(=O)NCCN3CCOCC3)C2)C1 (stereo unspecified)	3.0	-1.2
Cc1nn(C(C)C(=O)NC(C)CCc2ccccc2)c(=O)c2cc3sccc3n12 (stereo unspecified)	16.0	·
CCC1c2ccc(C)n2CCN1C(=O)Nc1ccccc1Cl (stereo unspecified)	-26.0	·
COc1ccc(Cn2nnnc2CN2CCc3ccccc32)cc1	18.0	-4.4
CC1=C/C(=N\NC(=O)COc2ccc(C#N)cc2)CC(C)(C)C1	6.0	·
Cc1cc(SCc2ccc(F)cc2)c(C)cc1Cl	·	0.6
Cc1ccc(CNC(=O)Cn2sc3nc(C)cc(C)c3c2=O)cc1	13.0	·
Cc1ccc(S(=O)(=O)N2CC=C(C(=O)NCc3cccs3)CC2)cc1	2.0	0.8
O=C(COC(=O)C1CCCCC1)c1ccc(Cl)s1	11.0	-1.3
Cc1ccc2c(c1)-c1c(cnn1CC(=O)NCCc1ccsc1)CO2	-7.0	·
COc1ccc(Nc2nc3ccccc3nc2-c2ccccc2)cc1	·	-2.2
CNC(=O)Nc1ccc(C(=O)NC)cc1	8.0	-1.6
CC12CCC(C(=O)Nc3nccs3)(OC1=O)C2(C)C (stereo unspecified)	-21.0	·
Cc1cc2ncn(CCC#N)c2cc1C	-16.0	·

Next records follow.
SMILES	Sa helicase inh	MgrA DNA FP
CCC(C)(C)n1nnnc1CN1CCC(NC(=O)COC)CC1	-4.0	-4.3
CCCCNc1nc2ccccc2n1CC(=O)c1cc(C)n(C)c1C	2.0	·
CCOC(=O)c1c(CSc2ccccc2)n(C)c2ccc(O)c(CN3CCN(C)CC3)c12	·	-0.4
COC1(OC)N=C(N)C2(C#N)C3C=CC(CC3)C12C#N (stereo unspecified)	3.0	-1.6
CN(C)C(=O)Cn1cc(S(=O)(=O)Cc2ccccc2)c2ccccc21	0.0	·
N#CCCn1nc(-c2ccccc2)cc1NS(=O)(=O)c1ccc(Cl)c(Cl)c1	-11.0	·
NNC(=O)Cc1nc2ccccc2[nH]1	8.0	-1.4
CC(CCc1ccccc1)NC(=O)c1ccc(=O)[nH]c1 (stereo unspecified)	-4.0	-1.2
Cc1nn(-c2ccccc2)c2sc(C(=O)OCc3cscn3)cc12	16.0	·
Cc1ccc(S(=O)(=O)NC(=O)NC2CCCCC2NC(=O)NS(=O)(=O)c2ccc(C)cc2)cc1 (stereo unspecified)	-6.0	·
CCC(=O)N1N=C2CCCCC2C1(O)C(F)(F)F (stereo unspecified)	-10.0	0.7
O=C(Oc1ccc([N+](=O)[O-])cc1)c1cccnc1Oc1ccccc1	·	1.4
Cc1ccnc(N2CCCC(C(=O)NCCCc3ccccc3)C2)n1 (stereo unspecified)	-19.0	·
CCC(C(=O)Nc1cc(C(F)(F)F)cc(C(F)(F)F)c1)c1ccccc1 (stereo unspecified)	·	0.1
Cc1ccc(SCc2cn3ccccc3n2)cc1	-23.0	·
Cc1nnc(SCC(=O)Nc2nsc(-c3ccccc3)n2)s1	18.0	·
N#C/C(=C(/O)CN1CCCN(c2ccc(C(F)(F)F)cn2)CC1)c1nc2ccccc2[nH]1	-7.0	·
COc1ccc(Oc2cc(F)nc(N)n2)cc1	1.0	1.8
COC(=O)CSc1nc2ccccc2n1-c1cccc(C)c1	-13.0	·
CCOC(=O)c1ccc(NC(=O)c2ccc(Cl)cc2)cc1	-17.0	·
COc1ccc2ncc(O)cc2c1	4.0	1.4
Cc1[nH]c2ccc(-c3nnc(SCc4ccc(C(=O)O)cc4)o3)cc2c1C	12.0	6.0
Cc1ccn2c(C(=O)O)c(C)nc2c1	·	-3.8
CCCn1c(=O)c(CCc2ccccc2)nc2c1c(=O)[nH]c(=O)n2Cc1ccccc1	18.0	·
N#Cc1ccccc1CSc1n[nH]c(=O)[nH]c1=O	16.0	-2.0

More structures.
SMILES	Sa helicase inh	MgrA DNA FP
O=C(CSc1nnc(-c2cccc(S(=O)(=O)N3CCOCC3)c2)o1)Nc1ncc(C(F)(F)F)cc1Cl	-10.0	·
c1ccc(CN(CCN(Cc2ccccn2)Cc2ccccn2)Cc2ccccn2)nc1	·	-1.2
COc1nc(Nc2ccc(C)cc2)nc(NC2CCCC2)n1	9.0	-1.7
O=C(Nc1ccc(S(=O)(=O)C(F)F)cc1)C1CC(=O)N(Cc2ccccc2)C1 (stereo unspecified)	-5.0	·
CCOc1ccc(NC(=O)N(Cc2cn(C)c3ccccc23)C2CCCCC2)cc1	14.0	-1.0
COc1ccc(C(=O)C(C)OC(=O)c2ccc3ccccc3n2)cc1 (stereo unspecified)	-12.0	·
CSCCC(N)c1nc2ccccc2n1Cc1ccccc1 (stereo unspecified)	-2.0	0.2
CCc1ccc(N2C(=O)CC(C(=O)OC)=C2C)cc1	-6.0	1.5
CCOC(=O)C(N)Cc1c[nH]c2ccccc12 (stereo unspecified)	-2.0	·
O=C(NCCn1ccc2ccccc21)c1ccc(F)cc1	-3.0	3.3
C#CCn1c(C2CC(=O)N(C)C2)nc2ccccc21 (stereo unspecified)	4.0	-3.2
Cc1ccc(S(=O)(=O)NCC(=O)N2CCCCC2)cc1	28.0	·
CCN(CC)CCCNC(=O)c1nn2c(C(F)(F)F)cc(-c3ccc(OC)c(OC)c3)nc2c1Cl	·	-2.8
CCCS(=O)(=O)NCCc1csc(-c2cccc(C)c2)n1	4.0	·
CCN(CC)S(=O)(=O)c1ccc(C(=O)Nc2sccc2C#N)cc1	-22.0	·
COC(=O)/C(=C\c1cccnc1)N(C)C(=O)c1ccc(F)cc1	5.0	·
NNC(=O)Cc1csc(-c2ccccc2)n1	·	-0.9
O=C(O)CNC(=O)CC12CC3CC(CC(C3)C1)C2	-21.0	·
Fc1ccc(CN(C(=S)Nc2ccccc2F)C2CCCCC2)cc1	7.0	0.6
Cc1ccc(S(=O)(=O)n2nccc2-c2c(-c3ccc(Cl)cc3)noc2C)cc1	-11.0	·
CC1CCCCN1C(=O)C1c2ccccc2Oc2ccccc21 (stereo unspecified)	10.0	7.5
CC12CN3CC(C)(CN(C1)C3C1CCCCC1)C2=O (stereo unspecified)	11.0	-0.2
COCCn1c(Cc2ccccc2)nnc1SCC(=O)c1ccc(O)cc1O	-1.0	·
COc1ccc(OC)c(CNC(=O)Cc2cccs2)c1	·	1.1
O=C(Cn1c(=O)n(CC2CCCO2)c(=O)c2ccc(C(=O)NC3CCCCC3)cc21)Nc1ccc(F)cc1 (stereo unspecified)	10.0	·

(continued)
SMILES	Sa helicase inh	MgrA DNA FP
Cn1c(=NC(=O)Cn2cnnn2)sc2ccccc21	-14.0	·
CC(C)(C)C(=O)Nc1ccn([C@H]2C[C@H](O)[C@@H](COC(=O)C(C)(C)C)O2)c(=O)n1	·	0.1
COc1cccc(-c2nn(C)c3sc(C(=O)NC4CCCCC4)cc23)c1	9.0	·
O=C(NCc1ccc(Cl)cc1)c1cc(-c2ccc(F)cc2)nc2ccccc12	5.0	0.9
CN1CCN(NC(=O)Cc2cccs2)CC1	13.0	0.5
COc1ccc(C2C3CCc4ccccc4C3=NN2C(=O)CN2CCOCC2)cc1 (stereo unspecified)	16.0	·
O=C(COC(=O)c1ccccc1C(=O)c1ccc(Cl)cc1)Nc1ccccc1	-9.0	-0.1
O=S1(=O)C=CC(Nc2ccccc2)C1 (stereo unspecified)	6.0	·
CCC(=O)Nc1ccc(C2=NN(C)C(=NCc3ccccc3)SC2)cc1	-4.0	·
CCc1c(C)sc(NC(=O)c2cc(-c3ccccc3)on2)c1C#N	16.0	7.3
O=C(Cc1ccccc1)Nc1cccc(-c2nc3ccccc3o2)c1	-18.0	-1.4
O=C(CCSc1ccc(Cl)cc1)c1ccc(Cl)cc1	·	-3.2
Nc1nnc(SCc2c(-c3ccccc3)nnn2-c2ccc(F)cc2F)s1	·	0.7
O=C(O/N=C/c1ccc2c(c1)OCO2)C1CCCCC1	·	-2.1
N#CC(C#N)=Cc1cn(-c2ccccc2)nc1C(=O)c1ccccc1	-13.0	·
CCC(=O)Nc1ccc(-c2cn3cccc(C)c3n2)cc1	-14.0	·
CCC1CN(C(=O)Nc2cccc(C)c2)c2ccccc2S1 (stereo unspecified)	14.0	·
COc1ccc2nc(NC(=O)c3ccco3)sc2c1	15.0&12.0	·
O=C1c2ccccc2-c2nnc(-c3ccc(O)cc3)cc21	·	0.4
O=c1[nH]c(CN2CCN(S(=O)(=O)/C=C/c3ccccc3)CC2)nc2ccccc12	-15.0	·
O=C(O)CCNS(=O)(=O)c1ccccc1	7.0	·
O=C1NS(=O)(=O)c2cc3c(cc21)C(=O)NS3(=O)=O	·	-0.3

18 entries from above, ordered by molecular weight, rising.
SMILES	Sa helicase inh	MgrA DNA FP
O=S1(=O)C=CC(Nc2ccccc2)C1 (stereo unspecified)	6.0	·
O=C(O)CCNS(=O)(=O)c1ccccc1	7.0	·
CN1CCN(NC(=O)Cc2cccs2)CC1	13.0	0.5
COc1ccc2nc(NC(=O)c3ccco3)sc2c1	15.0&12.0	·
O=C(O/N=C/c1ccc2c(c1)OCO2)C1CCCCC1	·	-2.1
CCC(=O)Nc1ccc(-c2cn3cccc(C)c3n2)cc1	-14.0	·
O=C1NS(=O)(=O)c2cc3c(cc21)C(=O)NS3(=O)=O	·	-0.3
O=C(CCSc1ccc(Cl)cc1)c1ccc(Cl)cc1	·	-3.2
CCC1CN(C(=O)Nc2cccc(C)c2)c2ccccc2S1 (stereo unspecified)	14.0	·
N#CC(C#N)=Cc1cn(-c2ccccc2)nc1C(=O)c1ccccc1	-13.0	·
O=C(Cc1ccccc1)Nc1cccc(-c2nc3ccccc3o2)c1	-18.0	-1.4
CCc1c(C)sc(NC(=O)c2cc(-c3ccccc3)on2)c1C#N	16.0	7.3
CCC(=O)Nc1ccc(C2=NN(C)C(=NCc3ccccc3)SC2)cc1	-4.0	·
O=C(NCc1ccc(Cl)cc1)c1cc(-c2ccc(F)cc2)nc2ccccc12	5.0	0.9
O=C(COC(=O)c1ccccc1C(=O)c1ccc(Cl)cc1)Nc1ccccc1	-9.0	-0.1
CC(C)(C)C(=O)Nc1ccn([C@H]2C[C@H](O)[C@@H](COC(=O)C(C)(C)C)O2)c(=O)n1	·	0.1
Nc1nnc(SCc2c(-c3ccccc3)nnn2-c2ccc(F)cc2F)s1	·	0.7
O=c1[nH]c(CN2CCN(S(=O)(=O)/C=C/c3ccccc3)CC2)nc2ccccc12	-15.0	·
